# VACV Venus inh = inhibitors of vaccinia virus (Venus reporter); 330,000 tested, 0.46% active; Potency, µM (doses to about 36.5 µM), for the others: top-dose activity change, negative = inhibition, hits mostly inhibitors; Vaccinia virus Venus reporter expression, fluorescence; active means well fitted inhibition curve with a large enough effect; inconclusive means small, poorly fitted or top-dose-only effect; inactive means no such curve, though single readings can be large or run the other way; tested in A549 cells; also: nearly all actives have a fitted effect of over 30% in size; inactives centre near -10
# Vaccinia mCherry = vaccinia inhibition (mCherry reporter). Vaccinia virus mCherry reporter infection, fluorescence; about a quarter of the inactives have no number. Potency, µM (highest dose often 36.5 µM), inactives show at the top dose activity change, negative = inhibition, hits mostly inhibitors. AID 720579. 310,000 tested, 0.63% active; active = well fitted inhibition curve with a large enough effect; inconclusive = small, poorly fitted or top-dose-only effect; inactive = no such curve, though single readings can be large or run the other way; tested in A549 cells; also: nearly all actives have a fitted effect of over 35% in size; inactives centre near -10
# * = called active by the depositor; i = inactive; ? = inconclusive; / = no result given; & = joins results of further samples; [ ] = remark or other dose. % is scaled to controls: 0 for no effect and ±100 for the full control effect; potency is read from the fitted curve at half-maximal effect. Hits appear at their usual frequency, and some 0.87% of all compounds hit somewhere here.
SMILES,VACV Venus inh,Vaccinia mCherry
CC(Cc1cccs1)NCc1ccc(Cl)cc1 (stereo not given),-15.4%,-3.5%
CC(/C=C/c1ccccc1)=N/NC(=O)CNC(=O)c1ccccc1F,-10.3%,1.2%
C=CCCC(=O)N1CCC(n2nccc2NC(=O)c2ccccc2C)CC1,-13.1%,i
COc1ccc(CNC(=O)c2ccc(CS(=O)Cc3ccccc3Cl)o2)cc1 (stereo not given),3.3%,-7.9%
CCOC(=O)Cn1c(=O)oc2cc(S(=O)(=O)N(C)c3ccc(OC)cc3)ccc21,-5.8%,-4.2%
O=c1[nH]c(SCc2ccccc2Cl)nc2c1cnn2-c1ccccc1,-15.8%,-15.2%
FC(F)(F)c1ccccc1NC(=S)N1CCN(c2ccccn2)CC1,?,?
CC(C)(C)c1ccc(C(=O)N2CCC(C(=O)NC3CC3)CC2)cc1,5.0%,-4.0%
O=C(c1ccccc1)N(Cc1cccnc1)C1(C(=O)Nc2ccccc2)CCCCC1,-9.6%,i
COc1ccc([N+](=O)[O-])cc1NC(=O)CSc1ccccc1,?,-12.9%
CCC(=O)Oc1ccc(C(=O)Nc2cccc(C(=O)NCC(C)C)c2)cc1,-11.5%,i
COc1ccc2c(c1)[nH]c1c(=O)n(Cc3ccccn3)cnc12,-17.7%,/
C#CCSc1nnnn1-c1cccc(Cl)c1,-23.8%,-10.9%
COc1ccc(N2C(=O)/C(=C/c3cccs3)C(=O)NC2=S)cc1,52.7%[activator][7.34 µM],18.9%[7.34 µM]
Fc1ccc(CNC(=S)Nc2cccc(C(F)(F)F)c2)cc1,?,-6.4%
Cc1nccn1-c1ncnc2sc3c(c12)CCCC3,-6.5%,-12.1%
C=CCC[C@H](Cc1ccc(F)cc1)C(=O)OC[C@@H](NC(=O)[C@@H](CC=C)CC(=O)N[C@@H](CO)Cc1ccccc1)C(C)(C)C,10µM*,?
O=C1c2ccccc2C(=O)N1CC1c2ccccc2CCN1S(=O)(=O)c1ccccc1 (stereo not given),-17.6%,-22.0%
Cc1cccn2cc(CSc3ccccc3N)nc12,-12.4%,-15.5%
COc1cc(OC)cc(-c2sc3ccc(OC)cc3c2C#CC2(N)CCCCC2)c1,?,?
CC(C)CCNC(=O)Cn1c(-c2cccs2)cc2cc(F)ccc21,-3.5%,-7.4%
O=C(Nc1ccccc1)Nc1sccc1-c1nc2ccccc2s1,18.8%,i
CC1CCCCN1CCCNC(=O)Cn1ncc2c([nH]c3ccccc32)c1=O (stereo not given),-5.5%[7.34 µM],-3.8%[7.34 µM]
CCOc1cccc(C(=O)NCc2ccccc2)c1,0.4%,-1.6%
CCCCOC(=O)c1cc(Cl)c(O)c(OC)c1,-13.9%,i
O=C(NCCNC(=O)c1ccco1)c1ccc(F)cc1,-3.1%,2.4%
O=C(NC1CCC(O)CC1)c1cccnc1Sc1ccccc1Cl (stereo not given),-9.2%,-5.8%
COc1ccc(C(C(=O)NC2CCCC2)N(C(=O)c2ccco2)c2ccc(OC)c(OC)c2)cc1 (stereo not given),-15.3%,-20.7%
COc1cc(C(=O)NCC(c2cccs2)N2CCc3ccccc32)cc(OC)c1OC (stereo not given),-12.7%,?
CCN1CCN(C(=S)NC(=O)/C=C/c2cccs2)CC1,-12.3%,i
Cc1nn2cc(-c3ccc(Cl)cc3)cnc2c1Br,-11.1%,-5.6%
COc1cc2c(cc1OC)CN(CC(=O)Nc1ccccc1C#N)CC2,-16.0%,/
CC(C)CN(C(=O)COC(=O)CCc1c[nH]c2ccccc12)C1CCS(=O)(=O)C1 (stereo not given),0.0%,-9.7%
CC(C)N1CC=C2C(C#N)=C(N)C(C#N)(C#N)C(c3ccccc3)C2C1 (stereo not given),0.4%,-14.9%
Cn1c(N)c(C(=O)COC(=O)/C=C/c2ccccc2)c(=O)n(C)c1=O,-19.4%,-21.8%
CN(C)c1ccc(C(CNC(=O)c2ccccc2Cl)N2CCCC2)cc1 (stereo not given),-12.0%,-0.1%
O=C(NC(CC(=O)N1CCN(c2ccccc2)CC1)c1ccccc1)c1ccccc1 (stereo not given),-14.4%,-15.1%
C(=N\Nc1nc2ccccc2[nH]1)/c1cccc2nccnc12,?,?
CC(C)N(C)NC(=S)Nc1ccccc1,-2.7%,-12.7%
Cc1c(Cl)ccc2c1NC(=O)[C@]21[C@@H]2C(=O)N(Cc3ccccc3)C(=O)[C@@H]2[C@@H]2CCCN21,-19.8%,-25.6%
NC(=O)c1cc([N+](=O)[O-])cc2c1C=Cc1ccccc1O2,-5.4%,i
Cc1cc(C)n(S(=O)(=O)c2cc(Cl)ccc2Cl)n1,-1.0%,-5.9%
CC(C)c1ccc(/C=N/Nc2cc(N3CCOCC3)nc(N3CCOCC3)n2)cc1,-12.3%,-16.6%
Cc1ccc(N2C(=O)c3ccc(C(=O)Nc4cccnc4)cc3C2=O)c(C)c1,3.8%,-2.5%
CC(=O)c1c(C)nn(C(=O)c2cccs2)c1C,4.3%,i
Cc1noc(C)c1S(=O)(=O)N(C)C[C@H]1Oc2ccc(NS(=O)(=O)c3ccc(F)cc3)cc2C(=O)N([C@H](C)CO)C[C@@H]1C,-4.1%,i
Cc1ccc(/C=C/S(=O)(=O)NCCC(=O)NCc2ccccc2F)cc1,-6.8%,-15.8%
CNc1cccc(-c2cccc(O)c2)n1,-10.0%,8.2%
CCOc1ccc(CNC(=O)C2=Cc3cccc(OC)c3OC2)cc1,-5.0%,0.0%
CCOc1ccc(-c2c(C(=O)N/N=C/c3ccc(OC)cc3)nnn2-c2nonc2N)cc1,3.0%,1.2%
CCOC(=O)c1c(NCc2ccc3c(c2)OCO3)c2ccccc2[nH]c1=O,-2.2%,-13.1%
O=C1NC[C@H](Cc2ccc(O)cc2)N(C[C@@H]2CCCN2C[C@H](Cc2ccccc2)N2C[C@H](Cc3ccccc3)N(CC3CCCCCC3)C(=O)C2=O)C1=O,-6.6%,-10.1%
CCc1ccc(NC(=O)c2cnn(-c3ccccc3)c2C)cc1,-11.8%,-20.7%
Cc1ccc(CNC(=O)CCNS(=O)(=O)c2cccs2)cc1,-12.5%,-1.5%
CCC(=Cc1ccc(CC)cn1)CC,-10.6%,i
O=C(c1ccc([N+](=O)[O-])cc1)N(Cc1cccs1)C1CCS(=O)(=O)C1 (stereo not given),-15.9%,i
COC(=O)c1ccccc1NC(=O)c1ccc2c(c1)OCCCO2,-9.4%,i
CCOC(=O)c1c(C)nc2sc3c(c2c1-c1ccc(OC)cc1)NC(c1ccccc1)NC3=O (stereo not given),-29.4%,/
CSCCC(NC(=O)C1CCCCC1)c1nc2ccccc2[nH]1 (stereo not given),4.6%,i
Cc1ccc(S(=O)(=O)NCCc2ccncc2)cc1C,-4.5%,-10.6%

# The list goes on:
SMILES,VACV Venus inh,Vaccinia mCherry
Cc1cc(C)nc(NS(=O)(=O)c2ccc(NC(=O)COc3ccc(C(C)(C)C)cc3)cc2)n1,-12.3%,-10.4%
CCCCC(=O)Nc1cccc(NC(=O)C(C)C)c1,-28.7%,-2.1%
CCCCN(C)CCNC(=O)c1cc(-c2cccnc2)nc2ccc(S(=O)(=O)N3CCC(C)CC3)cc12,-9.6%&-12.3%,-18.5%
COC(=O)COc1ccc(C(c2c(C)[nH][nH]c2=O)c2c(C)[nH][nH]c2=O)cc1,-1.2%,i
CC1=C(C(=O)Nc2ccccc2)C(c2ccc(C)cc2)N=C(Nc2nc3ccccc3o2)N1 (stereo not given),?,?
COc1ccc(OC)c(NC(=O)c2cccc(NC(=O)c3ccco3)c2)c1,-18.2%,-10.6%
COC(=O)c1ccc(NC(=O)CC2C(=O)N(c3ccc(F)cc3)C(=O)N2Cc2ccc(OC)cc2)cc1 (stereo not given),2.9%,-1.7%
COc1cccc(CNC(=O)c2cnc3c(-c4ccc(F)cc4)c(C)nn3c2C)c1,-0.7%,i
O=C(CCN1CCCC1Cc1ccccc1)c1ccc2c(c1)OCCO2 (stereo not given),?,-27.5%
Cc1ccccc1N(C(=O)c1snc(C(N)=O)c1N)C(C(=O)NC1CCCC1)c1ccco1 (stereo not given),-15.2%,?
COc1ccc(-c2nnsc2N2C(=O)c3ccccc3C2=O)cc1,-1.6%,i
CCOC(=O)c1c(-c2ccc(C)o2)csc1NC(=O)CN1CCC(C(N)=O)CC1,-22.7%,-17.7%
O=C(c1cnn2c(C(F)F)cc(-c3ccccc3)nc12)N1CCN2CCCC2C1 (stereo not given),-12.8%,-1.4%[1.46 µM]
CC(=O)N1CCOc2ccc(S(=O)(=O)NCC3CCC(C(=O)Nc4ccc(C)cn4)CC3)cc21 (stereo not given),-10.5%,-16.4%
C=CCc1cccc2cc(C(=O)NC3CCCCC3)c(=O)oc12,-14.4%,-27.9%

# 3 of the compounds above, with values under each structure:
# Every second line gives: VACV Venus inh | Vaccinia mCherry
> O=C(CCN1CCCC1Cc1ccccc1)c1ccc2c(c1)OCCO2 (stereo not given)
    ? | -27.5%
> C=CCc1cccc2cc(C(=O)NC3CCCCC3)c(=O)oc12
    -14.4% | -27.9%
> CC1=C(C(=O)Nc2ccccc2)C(c2ccc(C)cc2)N=C(Nc2nc3ccccc3o2)N1 (stereo not given)
    ? | ?

# Next results follow:
SMILES,VACV Venus inh,Vaccinia mCherry
COc1ccc(N(C(=O)CNC(=O)c2ccco2)C(C(=O)NC2CCCCC2)c2ccncc2)cc1 (stereo not given),-6.2%,-10.4%
Cc1cc(C)c(C#N)c(N2CCCC(C(N)=O)C2)n1 (stereo not given),-22.3%,i
NS(=O)(=O)c1ccc(CCNC(=O)COC(=O)Cc2ccc(Cl)cc2)cc1,-10.8%,-12.6%
O=C(CNS(=O)(=O)c1ccc(Br)s1)N1CCN(c2ncccn2)CC1,-3.7%,-9.2%
O=C(Oc1cccc(C(=S)N2CCOCC2)c1)c1cc([N+](=O)[O-])cc([N+](=O)[O-])c1,-20.4%,-4.1%
Cc1cn([C@H]2C[C@H](O)[C@@H](/C=C/C(=O)NCc3ccc4c(c3)OCO4)O2)c(=O)[nH]c1=O,0.1%,1.1%
Oc1cccc(/C=N/Nc2cc(N3CCOCC3)nc(N3CCOCC3)n2)c1,?,?
OC1c2c(F)cccc2N=C2CCCCN21 (stereo not given),-1.5%,8.9%
Cc1ccc2nc(-c3cccnc3)c(NC3CCCC3)n2c1,-11.6%,i
CSc1nnc(-c2ccccc2)c(=O)[nH]1,2.3%,/
Cc1onc(-c2ccccc2)c1C(=O)Nc1ccc(Cl)cn1,-18.8%,i
CC1=NNC(=O)C1CCC(=O)N/N=C/C=C/c1ccccc1 (stereo not given),-1.1%,-0.2%
C=CCn1c(SCC(=O)NCc2ccc3c(c2)OCO3)nnc1C1CCCCC1,-9.9%,-13.3%
Cc1ccccc1NC(=O)c1cccc(NC(=O)c2ccco2)c1,-18.6%,-5.3%
COc1cc(/C=N/NC(=S)NC(C)C)ccc1OCC(=O)Nc1c(C)cc(C)cc1C,-10.0%,-14.3%
O=S(=O)(NCC1(N2CCOCC2)CCCCC1)c1ccc(F)c(F)c1F,?,?
CCCCNC(=O)C1(C)CCN1C(=O)c1c(F)ccc(C)c1F (stereo not given),?,?
O=C(NCC(=O)N(c1ccccc1F)C(C(=O)NC1CCCC1)c1ccncc1)c1ccco1 (stereo not given),-6.0%,-10.3%
COc1cc(C(=O)Oc2cc(C)cc(C)c2)cc(OC)c1OC,0.8%,/
CCOC(=O)C1CCN(c2ncnc3c2c(-c2ccccc2)cn3-c2cccc(C)c2)CC1,1.7%,-1.2%
CC(NCCc1ccc(O)cc1)C(O)c1ccc(O)cc1 (stereo not given),-15.1%&0.1%,-12.9%
CCc1cc(=O)oc2c3c(cc(OCC(=O)NCCC(=O)O)c12)OC(C)(C)CC3,-12.0%,-20.0%
Cc1oc(-c2ccccc2F)nc1CS(=O)(=O)CC(=O)N1CCCCCC1,-22.1%,?
Cc1c(NS(=O)(=O)c2cc(C(=O)N(C)Cc3ccccc3)ccc2Cl)c(=O)n(-c2ccccc2)n1C,-13.2%,i
CCCN(C/C=C/I)C1CCc2ccc(O)cc2C1 (stereo not given),-22.0%,-8.9%
COc1cccc(C(=O)/C=C/Nc2ccc(S(=O)(=O)Nc3cnc4ccccc4n3)cc2)c1,-1.0%,i
Cc1cccn2c(=O)nc(SCC(=O)N3CCCCCC3)nc12,-1.7%,-5.7%
Cn1c(/C=C/c2ccc([N+](=O)[O-])o2)nc2ccccc2c1=O,?,4.47µM*
Cc1c(NC(=O)c2csc3c2CCCC3)c(=O)n(-c2ccccc2)n1C,-1.2%,i
CCc1cccc(Nc2c3c(nc4ncnn24)CCC3)c1,-17.0%,-6.9%
Cc1cccc(C)c1NC(=O)C(c1ccncc1)N1CCN(C)CC1 (stereo not given),-13.1%,-5.8%
Cc1ccc2c(CC(=O)NNC(=O)c3ccncc3)coc2c1,-5.0%,-21.2%
CSc1nc(C)c(CCOC(=O)c2ccccc2)c(=O)[nH]1,-9.5%,-17.6%
COc1ccccc1N(CC(=O)NC(C)(C)C)S(=O)(=O)c1cccs1,-12.5%,-3.5%
Cc1cc(O)c(CN2CCN(c3ccc(F)cc3)CC2)c2oc(=O)cc(C)c12,-8.7%[7.34 µM],-9.1%[7.34 µM]
O=C(NCCCN1CCN(c2cccc(Cl)c2)CC1)Nc1ccccc1C(F)(F)F,-8.0%,-2.9%
CC(=O)c1ccc(NC(=O)C(C)Nc2ccc(Cl)cc2)cc1 (stereo not given),-7.5%,-4.9%

# Entries of single compounds, looked up by structure. Order of values: VACV Venus inh	Vaccinia mCherry
# Cc1ccc2c(CC(=O)NNC(=O)c3ccncc3)coc2c1 is listed as -5.0%	-21.2%
# CSc1nc(C)c(CCOC(=O)c2ccccc2)c(=O)[nH]1 is listed as -9.5%	-17.6%

# Compound activity: PubChem, National Center for Advancing Translational Sciences (NCATS)
